H5N1 antiviral = MDCK cell protection from H5N1 avian flu. inhibition, % at 50 µM. cytopathic effect, luminescence, 72 h; stronger effect = higher value; no value below 0 was filed and about half of the inactive calls have no number; reference of the scale not given here. hit rate 0.07% among 96,000; in the data active means inhibition above about 25%
* hit, by the source's call; i = inactive. Not all compounds are listed; the hit share may differ from the screen's.

SMILES	H5N1 antiviral
O=C(Nc1ccc(N2CCN(C(=O)c3ccc(Cl)cc3)CC2)cc1)c1cccnc1	i
COC(=O)CCSCC(=O)Nc1nnc(C)s1	0.8
CCOCCCNC(=O)C1CCCN1S(=O)(=O)c1ccc(Cl)cc1 (stereo not drawn)	0.1
Cc1cc(N(C)C)nc(SC(C)C)n1	i
CCOC(=O)c1c(NC(C)=O)sc2c(OC)cccc12	i
CCOc1cc(C)c(C(C)C)cc1S(=O)(=O)N1CC(C)OC(C)C1 (stereo not drawn)	0.4
CCOc1ccc(-c2cn[nH]c2N)cc1	i
COc1ccc(C)cc1-n1nnnc1SCc1cc(=O)n2cc(C)ccc2n1	1.1
CCc1nc(SCC(=O)c2cccs2)c2oc3ccccc3c2n1	1.3
CCCCn1c(SCc2ccc(Cl)cc2)nc2c1c(=O)[nH]c(=O)n2C	i
COc1cccc(Oc2cnc(N)nc2-c2ccc(OC)cc2O)c1	i
CC(C)CCOc1ccc(C(CC(N)=O)C(=O)O)cc1 (stereo not drawn)	i
CC(C)C(CCNC(=O)CC(Cc1ccccc1)c1ccco1)c1ccco1 (stereo not drawn)	i
CC(C)OC(=O)Cn1c(=O)sc2ccccc21	i
CCN1CCN(CCCNC(=O)c2cn(CCOC)c(=O)c3c2c2ccccc2n3C)CC1	1.2
CCN(CC)CCN1C(=O)C(O)=C(C(=O)c2cccs2)C1c1ccc(C)o1 (stereo not drawn)	0.2
COc1ccccc1OCCCn1c(C)c(C#N)c2ccccc21	4.2
COc1ccc([N+](=O)[O-])cc1C1NN=C(c2cccc3ccccc23)S1 (stereo not drawn)	0.0
CC(NC(=O)COc1ccc(Br)cc1)C(=O)O (stereo not drawn)	0.1
Cc1ccc(S(=O)(=O)NCC(=O)OCC(=O)c2cccs2)cc1	i
CC1CCCC(NC(=O)COC(=O)COc2ccc(Cl)cc2)C1C (stereo not drawn)	1.3
Cc1ccc(S(=O)(=O)/C(C#N)=C/c2c(N3CCOCC3)nc3ccccn3c2=O)cc1	0.7
COc1ccc(OC)c(NC(=O)CCC(=O)Nc2nnc(C(F)(F)F)s2)c1	0.5
Cc1ccc(-c2cc(C(F)F)n3ncc(C(=O)Nc4c(C)nn(Cc5c(Cl)cccc5Cl)c4C)c3n2)cc1	i
N#Cc1ccsc1NC(=O)COC(=O)CCCSc1nc2ccccc2s1	0.1
Remaining list, next part.
SMILES	H5N1 antiviral
CCc1ccccc1NC(=O)c1nnn(CC(=O)Nc2ccccc2C)c1N	i
COc1ccc(/C=C\c2onc(C)c2S(=O)(=O)N2CCC(C(=O)NCCC(C)C)CC2)cc1	i
Cc1nn(C(=O)CN2C(=O)c3ccccc3C2=O)c(C)c1Br	i
Cc1ccc(C(=O)NNC(=O)Cc2ccccc2)cc1	i
COc1ccccc1CC(=O)NC1CC(C)(C)NC(C)(C)C1	0.3
Cc1cc2ccccc2n1CCNC(=O)c1ccccc1	i
CCOC(=O)c1cnc(SCC(=O)N2CCN(c3ccccc3)CC2)nc1N	0.0
CC(=O)C1=C(C)NC(SCC(=O)c2ccc(Cl)cc2)=C(C#N)C1c1ccco1 (stereo not drawn)	1.4
CCOc1ccc(CN(C(=O)c2ccco2)C2CCS(=O)(=O)C2)cc1 (stereo not drawn)	i
Cc1ccc(OCC(O)CN2CCN(c3ccccc3)CC2)cc1 (stereo not drawn)	i
CC(=O)Nc1nonc1-c1nc2ccccc2n1N(C(C)=O)C(C)=O	0.5
COc1cccc(Nc2nc(N)nc(-c3oc4ccccc4c3C)n2)c1	i
COc1ccc2[nH]c(=O)c(CN(C(=O)c3ccncc3)C(C)C)cc2c1	i
CCOC(=O)N1CCN(C(=O)COc2cc(=O)n(C)c3ccccc23)CC1	0.7
CCOC(=O)c1cnc(-c2ccccc2)nc1Oc1ccc(C)cc1	i
COc1ccc(CNCC(O)(c2ccc(Cl)cc2)c2ccc(Cl)cc2)cc1OC	i
COc1ccc(NC(=O)CCn2nc(C)cc2C)cc1	i
Cc1ccc(Cl)cc1NS(=O)(=O)c1c(C)[nH]c(=O)[nH]c1=O	0.1
CCCCc1c(C)c2ccc(OC)c(/C(C)=N\O)c2oc1=O	i
CCOC(=O)C1CCN(C(=O)CCS(=O)(=O)c2ccc3c(c2)CCN3C(C)=O)CC1	1.5
COC(=O)C1=C(C)NC2=C(C(=O)C(C(=O)OC)C(c3ccc(OC)cc3)C2)C1c1ccccn1 (stereo not drawn)	i
CCn1cc(CNC(=O)CCc2ccc(OC)cc2)cn1	0.3
Cc1ccc(NC(=O)c2snc3c(=O)[nH]cnc23)cc1C	2.3
NC(=O)c1c(NC(=O)Cc2cccs2)sc2c1CCC2	i
Cn1c(CSCc2ccccc2Cl)nnc1SCC(=O)Nc1nccs1	i

Fetched by structure from above (four):
SMILES	H5N1 antiviral
COC(=O)C1=C(C)NC2=C(C(=O)C(C(=O)OC)C(c3ccc(OC)cc3)C2)C1c1ccccn1 (stereo not drawn)	i
CCCCc1c(C)c2ccc(OC)c(/C(C)=N\O)c2oc1=O	i
COc1ccccc1CC(=O)NC1CC(C)(C)NC(C)(C)C1	0.3
Cc1ccc(NC(=O)c2snc3c(=O)[nH]cnc23)cc1C	2.3

A different layout for 3 compounds above.
Cc1nn(C(=O)CN2C(=O)c3ccccc3C2=O)c(C)c1Br
  H5N1 antiviral: i
Cc1ccc(C(=O)NNC(=O)Cc2ccccc2)cc1
  H5N1 antiviral: i
COc1ccccc1CC(=O)NC1CC(C)(C)NC(C)(C)C1
  H5N1 antiviral: 0.3

(listing goes on)
SMILES	H5N1 antiviral
CN1CCN(C(=O)c2cnn3c(C(F)F)cc(C4CC4)nc23)CC1	i
CN(CCOC(=O)c1ccco1)Cc1ccccc1	i
C=CCn1c(SCC(=O)NCc2ccccc2)nnc1C1CCCCC1	1.8
Cc1ccc(C)c(OCCOCCN2CCOCC2)c1	i
CCN1/C(=C/C(C)=O)Sc2ccc(OC)cc21	i
CC(c1nc2ccccc2c(=O)[nH]1)N1CCN(C)CC1 (stereo not drawn)	1.0
N#Cc1ccc(COC(=O)Cn2nnc(-c3ccccc3)n2)cc1	i
COc1ccccc1OCC(O)Cn1c(=N)n(CCN2CCCCC2)c2ccccc21 (stereo not drawn)	i
COc1ccc(-c2noc(CN(C)S(=O)(=O)c3ccc(C)cc3)n2)cc1	0.6
CC(C)Cc1nnc(NC(=O)CCC(=O)Nc2ccc(F)cc2)s1	0.5
COc1ccc(Cl)cc1C(=O)n1nc(C)cc1C	i
Cn1c(-c2ccc(C=O)s2)nc2c3ccccc3c3ccccc3c21	i
CC(C)(C)c1cc2cccnc2n1Cc1cccc(F)c1	i
CC(C)C(=O)NCCc1nc2ccccc2n1C	i
C=CCNC(=O)c1ccccc1Cl	0.8
O=C(CSc1n[nH]c(-c2ccncc2)n1)NCCc1ccccc1	i
COc1ccc(C(=O)N2c3cc4c(cc3C(C)=CC2(C)C)OCO4)cc1	0.8
COc1ccc(C(C(=O)NC2CCCC2)N(CCN2CCOCC2)C(=O)c2ccc(OC)c(OC)c2)cc1 (stereo not drawn)	1.8
CC1CN(c2nc3ccccn3c(=O)c2/C=C(\C#N)S(=O)(=O)c2ccccc2)CC(C)O1 (stereo not drawn)	0.3
CC(C)OC(=O)c1cc2c(ccn2C)n1CC(=O)N1CCC(Cc2ccccc2)CC1	i
S=C1N(c2ccccc2)C(c2ccccc2)N2CCCN12 (stereo not drawn)	0.6
Cc1csc(NC(=O)CNC(=O)OCc2ccccc2)n1	i
O=C(COc1ncnc2sccc12)Nc1ccc2c(c1)OCCO2	2.5
COc1ccc(/C=N/N2CCN(C)CC2)cc1OC	0.2
CCCC(=O)C1=C(O)C(C(=O)OC)C(C)(C)CC1=NC(C)(C)C (stereo not drawn)	1.1

As a working copy, part of the list above:
SMILES	H5N1 antiviral
CC(C)OC(=O)c1cc2c(ccn2C)n1CC(=O)N1CCC(Cc2ccccc2)CC1	i
S=C1N(c2ccccc2)C(c2ccccc2)N2CCCN12 (stereo not drawn)	0.6
Cc1csc(NC(=O)CNC(=O)OCc2ccccc2)n1	i
O=C(COc1ncnc2sccc12)Nc1ccc2c(c1)OCCO2	2.5
COc1ccc(/C=N/N2CCN(C)CC2)cc1OC	0.2
CCCC(=O)C1=C(O)C(C(=O)OC)C(C)(C)CC1=NC(C)(C)C (stereo not drawn)	1.1

Additional records
SMILES	H5N1 antiviral
COc1ccccc1CNC(=O)c1csc(Cc2ccc(Cl)cc2)n1	i
CC1(C)C(N(O)C(=O)Nc2ccc(Cl)cc2)N(c2ccc(Cl)cc2)C(=O)N1CC(=O)NN (stereo not drawn)	i
CCOC(=O)CNC(=O)CCNS(=O)(=O)c1ccc2c(c1)c(=O)n(C)c(=O)n2C	2.3
CCCCC(CC)C(=O)Nc1ccccc1C#N (stereo not drawn)	0.2
CC(=O)c1cccc(NC(=O)N2CCc3ccccc3C2)c1	0.5
Cc1cc(/C=N/NC(=O)c2ccc(CN3CCOCC3)cc2)c(C)n1-c1ccccc1	0.7
COc1ccc(OC)c(NC(=O)Nc2ccc(Cl)cc2)c1	i
COc1ccc(CC(NC(C)=O)C(=O)NC2CCN(C(=O)Nc3ccc(C#N)cc3)CC2)cc1OC (stereo not drawn)	i
Cc1ccc(C2=NN(C)c3nc4ccccc4n3C2)cc1	i
COc1ccc(C(=O)/C=C/Nc2cccc(C)n2)cc1OC	i
CCCCNc1cc(=O)n(C)c(=O)n1C	0.5
COc1ccc(CNC(=O)c2cnc3n(c2=O)CCS3)cc1	2.9
Cc1cc(-c2ccccc2)[nH]c(=O)c1S(=O)(=O)c1ccc(Cl)cc1	i
Cc1ccc(C(=O)c2ccc(C(F)(F)F)cc2)cc1	i
CC(C)(C)NC(=O)c1ccncc1	0.7
CCOc1cc2c3c(c1)C1(C(=O)N3C(C)(C)C=C2C)C(C#N)=C(N)Oc2cc(O)ccc21 (stereo not drawn)	i
O=C(NNS(=O)(=O)c1ccccc1)c1cnn(-c2ccccc2)c1-n1cccc1	i
CCC(=O)Nc1nnc(CSCc2ccc(F)cc2)s1	i
O=c1c2cnn(-c3ccccc3)c2ncn1Cc1cccnc1	1.1
Cc1cccc(Cc2c(C)nc3c(C(=O)N4CCN(Cc5ccc6c(c5)OCO6)CC4)cnn3c2C)c1	1.0
Cc1ccc2cc(C)c3nnc(SCC(=O)Nc4nc5c(s4)CCCC5)n3c2c1C	i
Cc1cc(=O)[nH]c2ccccc12	0.1
O=C(Nc1ccc(-c2cn3ccsc3n2)cc1)C1CC1	1.0
Cc1nnc(SCC(=O)Nn2cnnc2)s1	i
O=C(Nc1nc(-c2ccc(-c3ccccc3)cc2)cs1)C1CCCO1 (stereo not drawn)	i
Later entries
SMILES	H5N1 antiviral
Cc1ccc(NC(=O)N(Cc2ccc3c(c2)OCO3)Cc2cc3cc4c(cc3[nH]c2=O)OCCO4)cc1	8.1
CCOc1ccc(CNC(=O)C2CCC(=O)N2C2CCCC2)cc1OC (stereo not drawn)	i
COc1ccc(Cl)cc1-n1c(C)cc(C(=O)O)c1C	0.7
Cc1ccc(/C=N/Nc2nc(Cl)c(Cl)cc2Cl)s1	3.2
CC(=O)N1CCC(=NNS(=O)(=O)c2ccc(C)c([N+](=O)[O-])c2)CC1	0.9
CCn1c(SCC(=O)N2CCc3ccccc32)nnc1-c1c[nH]c2ccccc12	1.4
NC(=O)C1CCN(C(=O)CN2C(=O)c3ccccc3S2(=O)=O)CC1	i
COCCCNC(=O)COc1ccc(-c2nccc(-c3ccccn3)n2)cc1	i
CCCCNC(=O)c1ccc2nc(-c3ccco3)c(-c3ccco3)nc2c1	1.7
C=CCn1c(-c2ccoc2C)n[nH]c1=S	i
c1cncc(CNC2CCCc3ccccc32)c1 (stereo not drawn)	0.9
CCc1nc2ccccc2c(=O)n1NC(=O)c1c(O)c2cccc3c2n(c1=O)CCC3	i
COc1ccccc1S(=O)(=O)Cc1ccc(C(=O)N2CCOCC2)o1	0.4
CC1CC(C)CN(S(=O)(=O)c2cccc3cccnc23)C1 (stereo not drawn)	3.6
COc1ccc(/C=C2/C(=O)ON=C2c2ccccc2)cc1OC	0.6
Cc1nn(C)c(C)c1S(=O)(=O)N1CCCC(C(=O)N2CCN(c3ccccc3)CC2)C1 (stereo not drawn)	0.5
COc1ccc(-c2cc(C(=O)NCCCn3ccnc3)no2)cc1OC	i
CCOc1ccc2oc(-c3ccccc3)c(C(=O)O)c2c1	0.5
CCCCC(CC)CNC(=O)CCS(=O)(=O)c1cccc2nonc12 (stereo not drawn)	0.1
O=C(NC1CC1)C1CCN(c2ccc(S(=O)(=O)N3CCOCC3)cc2)CC1	i
CC(O)c1nc2ccccc2n1Cc1nnc(-c2ccc(Cl)cc2)o1 (stereo not drawn)	i
CCOc1ccc2[nH]c(C)c(CN3CCOCC3)c(=O)c2c1	0.5
CC(O)/C=C/c1ccc2ccccc2n1 (stereo not drawn)	0.5
Clc1ccc(OCCOCCN2CCCCC2)c(Br)c1	i
CN1CCN(C(=O)CN(Cc2ccc(Cl)cc2)S(C)(=O)=O)CC1	i
Following part
SMILES	H5N1 antiviral
COC(=O)C(C)Oc1ccc(-c2nccc(-c3cccs3)n2)cc1 (stereo not drawn)	1.2
Cc1nn(-c2ccccc2)c2sc(C(=O)O)cc12	i
CCC(CC)COC(=O)C(C#N)c1nc2ccccc2nc1N1CCN(CC)CC1 (stereo not drawn)	i
CSc1ccn(CCC(=O)O)c(=O)n1	i
CN(c1ccc(C(=O)Nc2nccs2)cc1)S(=O)(=O)c1ccccc1	i
COc1ccc(C(=O)NNC(=O)CN2CCC(n3nnc4cc(C(F)(F)F)ccc43)CC2)cc1	0.7
Cc1ccc(N(CN2C(=O)NC(C)(C)C2=O)CN2C(=O)NC(C)(C)C2=O)cc1	i
O=C(NC(=S)N1CCCc2ccccc21)c1ccc([N+](=O)[O-])cc1	4.1
C/C(=N\NC(=O)c1ccccc1O)c1c(O)cc(C)oc1=O	i
Cc1cc(C)cc(COn2ccnc2)c1	1.0
COC(=O)C1=C(N)OC2=C(C(=O)CC(C)(C)C2)C1c1cccs1 (stereo not drawn)	i

Filtered by structure: those above containing bromine (3)
SMILES	H5N1 antiviral
CC(NC(=O)COc1ccc(Br)cc1)C(=O)O (stereo not drawn)	0.1
Cc1nn(C(=O)CN2C(=O)c3ccccc3C2=O)c(C)c1Br	i
Clc1ccc(OCCOCCN2CCCCC2)c(Br)c1	i

Screens: PubChem BioAssay, SRMLSC
